TRPML1 inh: human mucolipin-1 channel inhibition | Q9GZU1 | TRPML1-inducible cells, Ca2+ dye fluorescence, FDSS; hits give low values; inhibition of EC80 agonist-evoked calcium signal | activity change, negative = inhibition, % (concentration not given with the values) | 390,000 compounds, 0.02% hits; in the data active means activity change below about -50%; inconclusive means about -30% to -50%; inactive means above about -30%;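 further: stimulus is agonist 54-4 at its EC80 concentration; on the % scale 0 is the no-effect control and ±100 the full control effect; the text of the record puts the active cut at -80%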
Target sequence (Q9GZU1 whole entry, looked up): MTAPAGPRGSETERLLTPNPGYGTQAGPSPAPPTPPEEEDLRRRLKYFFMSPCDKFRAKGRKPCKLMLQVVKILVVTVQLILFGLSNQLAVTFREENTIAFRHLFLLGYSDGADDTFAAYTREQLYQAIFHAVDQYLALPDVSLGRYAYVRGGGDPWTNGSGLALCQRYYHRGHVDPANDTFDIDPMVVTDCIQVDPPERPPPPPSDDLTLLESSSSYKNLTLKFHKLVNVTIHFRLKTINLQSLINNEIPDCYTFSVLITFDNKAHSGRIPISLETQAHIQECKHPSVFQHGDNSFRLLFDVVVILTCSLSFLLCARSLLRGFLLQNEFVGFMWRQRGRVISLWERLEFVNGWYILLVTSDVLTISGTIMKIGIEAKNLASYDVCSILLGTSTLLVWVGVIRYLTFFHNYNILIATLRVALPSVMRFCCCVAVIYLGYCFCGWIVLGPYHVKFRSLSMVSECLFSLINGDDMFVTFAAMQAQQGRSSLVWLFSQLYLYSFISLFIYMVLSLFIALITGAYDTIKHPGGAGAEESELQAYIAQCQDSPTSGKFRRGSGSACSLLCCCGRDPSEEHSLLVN
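Calcium fluorescence in TRPML1-DL cells induced overnight with Tet: a 110 s read after compound pin addition, then a 110 s antagonist read after challenge with 54-4 at 4 uM final (EC80).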
ClpP mod: qHTS Assay for Activators of ClpP; 340,000 compounds, 1.9% hits; Potency, µM (titrated, usually from 57.5 µM), without a hit: at the highest dose activity change, negative = active; purified B. subtilis ClpP, FRET peptide cleavage, 20 min; ATP-dependent Clp protease proteolytic subunit (Bacillus subtilis (strain 168)), P80244; AID 651965, 2013; active = well fitted falling curve with a large enough effect; inconclusive = small, poorly fitted or top-dose-only effect; inactive = no such curve, though single readings can be large or run the other way; further: potency means the concentration at half of the fitted maximal effect; the source files actives as falling curves though it sought activators and does not explain the sign; nearly all actives have a fitted effect of over 65% in size; many hits overshoot -100%
Target sequence (P80244 whole entry, looked up): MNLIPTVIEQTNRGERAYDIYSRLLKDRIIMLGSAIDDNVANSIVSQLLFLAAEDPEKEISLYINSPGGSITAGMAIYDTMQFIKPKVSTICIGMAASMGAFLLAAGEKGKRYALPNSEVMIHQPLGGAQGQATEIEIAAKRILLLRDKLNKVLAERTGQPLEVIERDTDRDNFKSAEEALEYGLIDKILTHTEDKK
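Buffer: 100 mM Tris/HCl pH8, 100 mM KCl, 0.05% low protease BSA, 2.5% glycerol, 0.01% Tween-20. ClpP 10 microg/mL final; 20 min RT; delta FRET normalized to ADEP and DMSO controls.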
PINK1 modulator: changes PINK1 expression. PINK1 immunofluorescence, high-content cytometry, 24 h. Potency, µM (highest dose often 76.6 µM), without a hit: at the highest dose activation (PINK1 increase), hits mostly activators. 410,000 compounds, 0.2% hits. AID 624263; active = well fitted activation curve with a large enough effect; inconclusive = small, poorly fitted or top-dose-only effect; inactive = flat fitted curve, though single readings scatter; cell line not stated here;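 further: potency means the concentration at half of the fitted maximal effect; % of control where 0% means no effect; nearly all actives have a fitted effect of over 65% in size; a mitochondrial uncoupler was the plate control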
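Measures PINK1 amount and localization on or inside mitochondria by immunofluorescence. Stable cells get compounds at 5 concentrations for 24 hours before fixation and staining; CCCP controls included.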
Sfp inh: blocks B. subtilis Sfp PPTase activity; Potency, µM, for inactives: max response, negative = inhibition, usual class: inhibitors; AID 1490; Biochemical Sfp PPTase activity, qHTS; Q9F4F7; 310,000 compounds, 3.5% hits; active means well fitted inhibition curve with a large enough effect; inconclusive means small, poorly fitted or top-dose-only effect, or another doubt; inactive means no such curve, though single readings can be large or run the other way;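 further: the enzyme is Sfp with the accession as filed and its product quenches rhodamine fluorescence; potency means the concentration at half of the fitted maximal effect; 0% = enzyme reaction without inhibitor and -100% = no enzyme wells; top concentration of the series not given in the record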
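Compounds were incubated with enzyme (final 15 nM) for 15 min at room temperature before substrate addition started the reaction. Fluorescence at 525 nm excitation, 598 nm emission was recorded immediately and after 30 minutes.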
TRPML1 agonist: human mucolipin-1 channel agonism. AID 624414. Q9GZU1. TRPML1-expressing cells, Ca2+ dye fluorescence, FDSS; host cell line not named in the record; reference of the full effect not given here. 410,000 compounds, 0.12% hits. activation, % (concentration not given with the values); in the data active = activation above about 50%; inconclusive = about 30% to 50%; inactive = below about 30%; further: 0% is about no effect; the text of the record puts the active cut at 80%
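Agonist activity was taken from a 110 s kinetic Ca2+ dye read on the FDSS after pinning compounds onto TRPML1-DL cells. The cells were seeded at 1,500/well with Tet inducer, incubated about 16 h, then dye-loaded at room temperature.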
TRPV1 potentiator: enhances activation of the human vanilloid receptor TRPV1 | TRPV1-expressing cells, Fluo-8 calcium influx, capsaicin EC20 potentiation; host cell line not named in the record; control for the full effect not named in the record | Q8NER1 | potentiation, % at 8.33 µM | AID 540277 | 320,000 compounds, 0.02% hits; active means potentiation above 80%; inconclusive means 30% to 80%; inactive means below 30%; further: 0% is about no effect
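Fluo-8 calcium influx in TRPV1-expressing cells, kinetic read (ex 480/em 520 nm). Compound added and read 3 min for agonist activity, followed by capsaicin at EC20 final and 2 min further read for enhancement.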
Menin MLL FP FL: inhibitors of human menin-MLL interaction, wild-type MLL peptide | Fluorescence polarization, fluorescein-MLL peptide displacement from menin | FP activity change, % at 61.4 µM | 290,000 tested, under 10 active | AID 1766; inconclusive = falling polarisation curve, or a change in total fluorescence; inactive = total fluorescence flat and polarisation flat or rising; no compound was filed as active; the % refers to the polarisation; negative = inhibition;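 further: % of control where 0% means no effect; inhibitors lower the polarisation; unlabelled MLL peptide was the positive control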
Starred values were filed as active, the others as inactive; ? = inconclusive; · = no result given; & = joins results of further samples; [ ] = dose if it differs, or a comment.

SMILES	TRPML1 inh	ClpP mod	PINK1 modulator	Sfp inh	TRPML1 agonist	TRPV1 potentiator	Menin MLL FP FL
NC(=O)C1CC(=O)N(c2ccc(OCC(=O)NCc3ccccc3)cc2)C1 (configuration not stated)	8.8	·	-0.9%	23.9%	0.8	-39.0	2.1
Cc1ccc(S(=O)(=O)N(CC(=O)N/N=C/c2ccco2)Cc2ccccc2)cc1	6.2	-1.5%	11.8%[38.3 µM]	-2.1%	1.6	?	-0.7
C[C@]1(CO)CCC[C@@]2(C)C1CC[C@@H](CO)[C@@H]2CCc1ccoc1 (some centres not stated)	0.1	0.2%	-1.8%	2.1%	2.7	18.7	2.4
CC(NC(=O)C1CC(=O)N(c2ccc3c(c2)OCCO3)C1)c1ccccc1 (configuration not stated)	9.6	-7.5%	-0.7%	·	0.1	·	·
O=C(c1cccnc1)N1CCC(Oc2ccc(C(=O)N3CCCCO3)cc2)CC1	-13.6	-0.1%	0.2%	23.6%	1.4	5.7	-4.4
CC(=O)N1C[C@@H](CO)[C@@H](N(C)C(=O)C2CCCCC2)C[C@H]1c1ccccc1	·	-3.2%	-0.5%	·	-0.3	·	·
c1ccc2[nH]c(NC3=NCCC3)nc2c1	15.4	1.7%	1.0%	-8.1%	5.9	3.1	2.9
O=C(CCC1N=C2c3ccccc3N=C(SCc3cccc(F)c3)N2C1=O)NCc1cccs1 (configuration not stated)	24.4	-4.2%	0.2%	·	1.0	·	·
CCOC(=O)NC(=O)CSc1ccc(C)cc1C	-11.4	·	6.7%	1.6%	-0.8	-15.5	-2.8
O=C(NCCC1CCCCN1S(=O)(=O)c1ccc(F)cc1)C(=O)NCCN1CCOCC1 (configuration not stated)	24.1	-0.9%	0.6%	·	1.4	1.5	·
CC(C)Oc1ccccc1NC(=O)CSc1nc2ccccc2c(=O)n1C	·	1.5%	3.8%	-1.2%	·	-19.1	0.6
Cc1ccc(C)c(CN2C(=O)C3CCCN3c3ccc(S(=O)(=O)N4CCOCC4)cc32)c1 (configuration not stated)	·	·	·	6.5%	·	1.9	19.2
Cc1cc2c(cc1S(=O)(=O)CCC(=O)N1CCC(C)CC1)OCC(=O)N2	-8.6	0.3%	1.5%	·	4.3	·	·
CNC(=O)NC(=S)NC(=O)c1ccccc1Cl	-23.1	·	-0.5%	-26.4%	-0.5	23.1	-1.4
NC(N)=N/N=C/c1ccc(OCc2ccccc2)cc1	-21.2	-2.3%	2.2%[38.3 µM]	-15.0%	-0.4	-3.0	0.6
Cc1ccc(C2c3c(oc4ccccc4c3=O)C(=O)N2CCCN2CCOCC2)o1 (configuration not stated)	-6.1	-6.7%	-2.6%	-9.7%	-0.2	?	8.3
CCN1/C(=C2\C(=O)N(C)C(=S)N2c2ccccc2)C=Cc2ccccc21	-6.4	·	5.8%	89.1µM*	1.2	2.7	-1.3
CCOc1ccc(C(=O)Nc2ccccc2CC)cc1[N+](=O)[O-]	19.8	0.3%	0.9%	10.9%	-1.6	-0.9	11.5
COc1ccc(C)cc1NC(=O)C1CCCN(c2ncnc3onc(C)c23)C1 (configuration not stated)	-13.0	-2.0%	-0.6%	·	0.5	·	·
CN(C)c1ccc(/C=N\Nc2ccc([N+](=O)[O-])cc2[N+](=O)[O-])cc1Br	·	-0.3%	0.7%	·	0.0	·	·

Sfp inh: entries above that show a hit.
mol | TRPML1 inh | PINK1 modulator | Sfp inh | Menin MLL FP FL
CCN1/C(=C2\C(=O)N(C)C(=S)N2c2ccccc2)C=Cc2ccccc21 | -6.4 | 5.8% | 89.1µM* | -1.3

The results go on.
SMILES	TRPML1 inh	ClpP mod	PINK1 modulator	Sfp inh	TRPML1 agonist	TRPV1 potentiator	Menin MLL FP FL
CC(=O)c1c(C)n([O-])c2ccccc2[n+]1=O	-2.5	-15.0%	36.1%[38.3 µM]	8.8%	-0.8	-6.7	3.0
Cc1ccc(/C=C/c2onc(C)c2S(=O)(=O)N2CCC(C(=O)N3CCN(c4cc(C)ccc4C)CC3)CC2)cc1	-0.6	-5.0%	1.4%	·	-0.2	·	·
Cc1ccn2c(=O)cc(COc3ccc(NC(=O)COc4ccccc4)cc3)nc2c1	-3.7	1.5%	1.7%	·	-0.4	·	·
COc1ccc(C(=O)N2CCC2)cc1S(=O)(=O)NCc1ccc(Cl)cc1	6.2	-0.2%	1.4%	·	-0.2	·	·
CCSCc1nnc(SCC(=O)Nc2nc3ccccc3s2)n1C	-11.7	-1.3%	2.0%	3.7%	1.2	21.1	1.3
CCOC(=O)N1CCN(C(=O)c2ccccc2N(C)S(C)(=O)=O)CC1	9.7	-2.0%	2.5%[38.3 µM]	-4.9%	0.5	2.5	0.7
CC(C)Cc1cc(CN2CCC(CO)(Cc3ccccc3)CC2)[nH]n1	17.0	0.3%	-1.0%	3.0%	0.4	-0.8	-0.4
CCN(CC)CCCN1C(=O)C(O)=C(C(=O)c2sc(C)nc2C)C1c1ccco1 (configuration not stated)	12.6	1.1%	3.7%[38.3 µM]	7.2%	-0.8	1.7	-2.1
CC1NC(=O)NC1CCCCCC(=O)Nc1ccc(F)c(Cl)c1 (configuration not stated)	-5.3	·	-0.4%	20.0%	-0.2	1.9	0.0
Clc1ccc(/C=N/Nc2nn[nH]n2)cc1	8.1	0.9%	0.2%	-18.3%	0.5	-0.1	2.7
Cc1ccccc1Cn1ccc(=NCc2ccccc2)cc1	-2.5	·	0.1%	1.1%	-0.1	6.4	3.1
COc1ccc(Oc2ncc3ncc(=O)n(Cc4ccc(F)cc4)c3n2)cc1	·	·	4.4%	7.2%	·	·	0.6
COC(=O)c1sccc1NC(=O)Nc1ccc(OC)c(OC)c1	-0.7	2.5%	0.7%	4.0%	0.4	-0.2	·
Cc1ccc2nc(/C(C#N)=C\c3ccc(Oc4ccc([N+](=O)[O-])cn4)cc3)[nH]c2c1	5.9	-3.1%	9.2%	-6.3%	-0.5	19.1	6.5
COC(=O)C1(C)Nc2ccccc2C(=O)N1c1ccccc1C (configuration not stated)	-1.3	4.9%	0.1%	17.4%	0.2	22.9	1.4
Cc1ccc(NC(=O)c2ccc(Br)o2)cc1S(=O)(=O)N(C)C	-8.9	·	-1.4%	-15.6%	-0.1	-18.0	-2.5
Cc1ccccc1OCc1nnc(SCC(=O)Nc2ccc3nc(SCC(=O)NC(C)(C)C)sc3c2)n1C	-5.6	-5.0%	5.5%	-0.2%	0.3	4.7	3.2
CCOc1ccc(NC(=O)CN(C)c2ccc(S(=O)(=O)N3CCOCC3)cn2)cc1OCC	8.7	2.7%	8.8%	4.2%	-0.6	9.7	2.5
CCN1CCCC1CNc1ncnc2c1[nH]c1ccc(F)cc12 (configuration not stated)	-3.3	28.2µM*	1.0%	-8.3%	-0.1	7.3	13.4
Cc1ccc(S(=O)(=O)Nc2cccc(-n3cnnn3)c2)cc1C	-15.8	1.2%	0.9%	12.2%	0.5	20.3	1.7
Cc1cc(=S)cc(C)n1CCO	-2.2	·	0.3%	-14.2%	0.3	5.1	-0.7
COc1cc(CNc2ccc3[nH]c(=O)[nH]c3c2)cc(Br)c1OCc1ccc(F)cc1	-4.8&1.2	?	9.0%&5.0%	2.9%	-0.9&-0.6	-24.4	-11.4
CCNc1c(NS(=O)(=O)c2ccc(Br)s2)c(=O)oc2ccccc12	11.4	·	-0.7%	22.6%	1.8	12.9	-0.8
CCCC[C@@H]1CNC(=O)C(=O)N1CCCc1cc(OC)c(OC)c(OC)c1	-6.9	0.1%	-0.4%	0.4%	-1.0	1.1	32.4[activator]
O=C(COC(=O)Cn1cnc2ccccc21)NCCC1=CCCCC1	-2.9	-0.4%	-1.8%	8.7%	0.0	0.4	4.0
CC(C)CNC(=O)COc1ccc2c3c(c(=O)oc2c1)CCC3	15.0	25.1µM*	-3.3%[38.3 µM]	-5.8%	0.5	-0.8	-2.3
Cc1ccc(S(=O)(=O)N2CCCC2CNC(=O)C(=O)NCCN2CCOCC2)cc1 (configuration not stated)	5.5	-0.8%	1.8%	·	-0.1	4.8	·
COc1ccc(-c2cc(CS(=O)(=O)c3ccccc3)on2)cc1	5.4	·	-1.9%	18.2%	1.4	11.0	-2.0
O=C(O)c1ccc(/C=N/N2CCN(Cc3cccc4ccccc34)CC2)cc1	16.1	·	-3.0%	9.9%	0.5	4.7	-2.1
CCCn1c(N)c(C(=O)COC(=O)COc2ccc(Cl)c(C)c2)c(=O)n(C)c1=O	14.7	-0.6%	-0.6%	·	0.3	12.1	·
Cc1ccc(N(CC(O)COCc2ccco2)S(=O)(=O)c2ccc(C)cc2)cc1 (configuration not stated)	0.2	-0.3%	0.1%[38.3 µM]	?	-0.3	1.2	4.9
CN(C)C(CNC(=O)c1ccc(-c2ccccc2)cc1)c1ccccc1 (configuration not stated)	-1.4	·	3.2%	1.6%	0.3	12.5	-1.2
CC(=O)c1ccc(-n2cc(-c3ccc(C(C)(C)C)cc3)[n+]3c2SCCC3)cc1	3.9	·	1.5%	10.1%	0.0	9.1	1.9
O=C(CCS(=O)(=O)c1ccc(Cl)cc1)Nc1nnc(-c2cccs2)o1	-5.8	·	0.0%	·	-0.6	0.4	·
COc1ccc(Cn2c(CO)cnc2SCC(=O)Nc2cc(C)on2)cc1	24.5	-0.4%	-0.6%	17.2%	0.2	22.3	0.6
O=[N+]([O-])c1ccc2c(c1)C(O)n1nc(-c3ccc(Cl)cc3Cl)nc1S2 (configuration not stated)	3.6	-4.7%	-0.4%	24.2%	-0.3	3.9	1.4
COc1ccccc1N1C(=O)c2ccccc2NC1c1cc(OC)c(OC)c(OC)c1 (configuration not stated)	-7.6	·	3.9%	10.1%	-0.8	-9.1	-2.7
COc1cc(NC(=O)Cn2c(=O)n(C(C)C)c(=O)c3oc4ccccc4c32)cc(OC)c1	20.1	-2.9%	2.9%	·	1.2	·	·
CCCn1nc([N+](=O)[O-])c(C(C#N)c2nc3ccccc3o2)c(Cl)c1=O (configuration not stated)	9.2	-6.4%	?	-17.4%	-0.7	11.4	2.4
Cc1ccccc1C(=O)c1cccn1CC(=O)NCc1ccc(Cl)cc1	6.5&-21.8	2.7%&-9.8%	1.6%&0.3%	5.8%	2.5&2.8	-1.8	-0.3
COc1cccc(-c2nn(-c3ccccc3)cc2CO)c1	10.9	0.1%	-1.2%	9.1%	2.5	-12.6	-0.6
CCc1cc(=O)oc2cc(C)cc(OC(C)C(=O)NCc3ccccn3)c12 (configuration not stated)	12.9	3.3%	-1.3%	13.8%	0.6	25.1	2.7
